Screening results from PubChem BioAssay.
RecA splice inh: inhibitors of M. tuberculosis RecA intein splicing | cell-free RecA intein splicing, fluorescence | inhibition, %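 (about 9 µM by stock and volumes)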 | hit rate 0.75% among 290,000; in the data active means inhibition above about 30%; inconclusive means no clear call, values can overlap the other calls;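 further: 0% = vehicle wells and 100% = reference inhibitor control wells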
Target sequence (P9WHJ3 whole entry, looked up, canonical isoform): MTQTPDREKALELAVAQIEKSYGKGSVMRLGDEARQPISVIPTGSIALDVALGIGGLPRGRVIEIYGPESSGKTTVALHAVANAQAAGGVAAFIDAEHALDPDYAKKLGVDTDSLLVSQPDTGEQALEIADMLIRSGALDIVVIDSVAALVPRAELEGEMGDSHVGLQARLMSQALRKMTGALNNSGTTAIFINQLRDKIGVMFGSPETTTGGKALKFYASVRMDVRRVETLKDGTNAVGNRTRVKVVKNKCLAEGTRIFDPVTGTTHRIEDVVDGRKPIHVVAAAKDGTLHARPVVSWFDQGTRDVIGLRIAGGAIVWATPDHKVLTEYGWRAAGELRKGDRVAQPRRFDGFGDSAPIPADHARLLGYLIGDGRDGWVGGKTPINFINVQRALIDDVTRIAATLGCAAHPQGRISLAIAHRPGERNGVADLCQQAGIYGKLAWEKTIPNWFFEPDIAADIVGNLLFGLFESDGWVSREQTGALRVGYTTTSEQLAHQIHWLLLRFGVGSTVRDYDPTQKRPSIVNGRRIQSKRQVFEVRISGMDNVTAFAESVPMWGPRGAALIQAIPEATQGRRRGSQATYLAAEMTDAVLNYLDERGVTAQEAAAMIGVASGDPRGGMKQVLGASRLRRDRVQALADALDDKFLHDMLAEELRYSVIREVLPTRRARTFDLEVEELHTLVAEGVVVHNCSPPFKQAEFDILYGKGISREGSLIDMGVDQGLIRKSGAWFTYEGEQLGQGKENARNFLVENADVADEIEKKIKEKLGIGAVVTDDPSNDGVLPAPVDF
Mtb bLac sens: beta-lactam sensitization of Mtb H37Rv. M. tuberculosis H37Rv growth with meropenem, percent inhibition; hits of this screen are not shown here. inhibition, % at 25 µM. hit rate 0.27% among 330,000. AID 434955;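 active means about 74% or more and at least 40 points above the plate without the antibiotic, then above 30% in a dose series; inconclusive means first-round hits that could not be retested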;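 further: growth measured after seven days incubation then overnight dye step; 0% = bacteria only wells and 100% = bacteria with antibiotic; twin plates without the antibiotic show which effects depend on it; some results filed as inactive read as strong as hits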
YopH inh: blocks Yersinia enterocolitica YopH tyrosine phosphatase; fluorescence Ex485/Em525; inhibition, %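 (about 10 µM by stock and volumes)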; hit rate 0.16% among 140,000; AID 898;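 active means inhibition of 50% or more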;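 further: controls were vehicle for no effect and minimum signal wells for full effect; inactives centre near -20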
Mtb H37Rv: M. tuberculosis H37Rv growth inhibitors, H37Rv strain (AID 1626); M. tuberculosis H37Rv growth inhibition; higher % means a stronger effect; inhibition, % at 10 µM, or IC50 in µM where a hit was titrated; hit rate 0.95% among 220,000;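 active means confirmed in a dose series; inconclusive means inhibition above 80% but not taken into the dose series; inactive means below 80% or under 30% at every dose of the series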;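 further: bacteria incubated seven days before Alamar blue readout; 0% = bacteria only wells and 100% = bacteria with antibiotic wells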
Arbovirus anti: antivirals against arbovirus infection | AID 1251 | inhibition, % at 10 µM | arbovirus infection cell-based antiviral screen | hit rate 0.37% among 200,000;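 active means inhibition from about 30%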;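 further: bluetongue infection of BSR cells; cell survival read as ATP light after 72 h; 0% = infected wells without compound and 100% = uninfected wells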
Arbovirus anti repeat: recorded beside Arbovirus anti, whose call it bears; inhibition, %; measured here: 10K subset replicate screen; many hits read low in the repeat;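 first of two repeat runs on a subset; 0% = infected and 100% = uninfected wells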
Numbers without * were called inactive; ? = inconclusive; / = no result given; & = joins results of further samples.

SMILES | RecA splice inh | Mtb bLac sens | YopH inh | Mtb H37Rv | Arbovirus anti | others
COCCCn1c(SCC(=O)Nc2ccc(C(=O)OC)cc2)nc2ccccc2c1=O | 0.4 | 3 | 0 | 4% | -4
COC(=O)c1c(NC(=O)C2CCC2)sc(C(=O)N(C)C)c1C | 3.4 | 6 | -6 | 0% | -2
COc1ccc(N=C2C(=O)Nc3ccc(C)c(Br)c32)cc1 | 4.7 | 83 | / | / | /
O=[N+]([O-])c1ccc2c(c1)C(O)n1nc(-c3ccccc3)nc1S2 (stereo unspecified) | -2.7 | -1 | / | -10% | /
CCOc1ccc(OCC)c(S(=O)(=O)n2ccnc2C)c1 | -0.4 | 10 | / | / | /
C=CCSc1nc2sc3c(c2c(=O)n1CC)CCC3 | 1.9 | 17 | / | / | /
Cc1ccc(-n2nc3c(N4CCC(C(=O)NCCc5cccs5)CC4)nnc(C)c3c2C)cc1 | -2.4 | -6 | / | / | /
COC(=O)c1c(NC(=O)CSc2n[nH]c(N)n2)sc(C)c1C | -2.0 | -14 | -28 | 1% | -3
O=c1c2ccccc2nnn1CSc1ccccc1F | 3.9 | 0 | -23 | 10% | -5
Cc1ccc(CC2(O)CC(C)N(C)CC2C)c(C)c1 (stereo unspecified) | 0.2 | -7 | -38 | -2% | 8
Nc1nccc(/C=C/c2c(Cl)cccc2Cl)n1 | 2.3 | -8 | / | / | /
O=C1NC(=O)C(CCc2ccncc2)(CCc2ccncc2)C(=O)N1C1CCCCC1 | -0.7 | 3 | / | -5% | 12
CC(=O)Nc1ccc(C(=O)NCC(=O)OCc2c(F)cccc2Cl)cc1 | 1.6 | 4 | / | -1% | -2
O=C(/C(=C/O)N=Nc1ccccc1)c1cccs1 | -0.8 | -3 | / | -2% | 3
CCN1C(=O)C(CC(=O)Nc2c(C)cccc2C)SC1=Nc1ccc(S(N)(=O)=O)cc1 (stereo unspecified) | 0.1 | 7 | -24 | -4% | 1
CC(C)C(NS(=O)(=O)c1cccs1)C(=O)NCc1ccc2c(c1)OCO2 (stereo unspecified) | 0.0 | -1 | -18 | -4% | -2
CC(C)CN1CCC(=O)N([C@H](CO)Cc2ccccc2)CC1 | -4.2 | -13 | / | / | /
COc1ccc(S(=O)(=O)Cc2ccc(C(=O)N3CCN(C4CCCCC4)CC3)o2)cc1 | / | -7 | -36 | -2% | 4 | Arbovirus anti repeat=1
CCN1CCN(C(c2cccs2)C(C)NC(=S)NC2CCCCC2)CC1 (stereo unspecified) | -1.0 | -5 | / | -1% | /
CCSC1=NC(C)(C)C=C(C)N1 | -0.9 | -5 | -10 | 5% | 2
COc1ccc(Cl)cc1S(=O)(=O)N1CCCC(C(=O)NCC(N)=O)C1 (stereo unspecified) | 0.3 | -7 | -28 | -3% | /
CCOP(=O)(c1ccc(N(C)C)cc1)C(O)c1c(Cl)cccc1Cl (stereo unspecified) | 6.1 | -5 | -2 | 3% | 13
COc1cc(/C=N/NC(=O)c2cccc(N3CCCC3=O)c2)ccc1O | -3.3 | -9 | / | / | /
COc1ccccc1C(=O)COC(=O)Cc1n[nH]c(=O)c2ccccc12 | -4.2 | -4 | / | / | /
CN(C)S(=O)(=O)c1ccc(NC(=O)Cn2c(-c3ccccc3)noc2=O)cc1 | -2.1 | -1 | -1 | -8% | -6
SMILES | RecA splice inh | Mtb bLac sens | YopH inh | Mtb H37Rv | Arbovirus anti | others
Cc1ccccc1-c1nc(C#N)c(N2CCC(C)CC2)o1 | 15 | 0 | / | / | /
c1csc(C2=NNC(=NC3CCCCC3)SC2)c1 | 0.9 | -3 | / | 9% | 13
Cn1c(=O)c(C(=O)Nc2ccccn2)c(O)c2ccccc21 | 1.7 | 100 | -39 | 0% | -11
COC(=O)[C@]1(CC(C)C)N[C@H](c2ccc(-c3ccc(OC)cc3)cc2)[C@@H]2C(=O)N(C)C(=O)[C@@H]21 | -1.7 | -3 | / | / | /
CCOCCCNC(=O)c1cc2c(=O)n3cccc(C)c3nc2s1 | -12 | -6 | / | / | /
O=c1c2c([nH]n1-c1ccccc1)CCCC2 | 0.7 | 5 | / | 12% | -2
Cc1cccc(-n2ncc3c(NCCCN4CCCC4=O)ncnc32)c1 | -2.1 | 3 | -57 | -2% | -3
Cc1nc([N+](=O)[O-])c(Br)n1Cc1ccc(Cl)c(Cl)c1 | 8.8 | / | / | 4.1µM* | -23
CN1C(=O)/C(=C/c2ccco2)SC1=Nc1ccc(N2CCOCC2)cc1 | 0.3 | 2 | -36 | -8% | -4
CCc1ccc2c(CN3CCC(C(=O)OC)CC3)cc(=O)oc2c1 | 1.4 | 1 | / | / | /
CC1CCCN(C(=O)CN2CCC(c3nc4ccc(Cl)cc4[nH]3)CC2)C1 (stereo unspecified) | 1.6 | -15 | / | -5% | /
COc1cc(C(O)P(=O)(OC(C)C)c2ccc(N(C)C)cc2)cc(OC)c1OC (stereo unspecified) | -0.3 | -1 | -19 | -4% | 5
CCOc1ccc(NS(=O)(=O)c2ccc(C(=O)NCC(c3cccs3)N3CCOCC3)cc2)cc1 (stereo unspecified) | 2.1 | -15 | / | / | /
CCN(CC)S(=O)(=O)c1ccc(C(=O)OCC(=O)NCc2ccco2)cc1 | 1.4 | -3 | / | -2% | 2
Cc1ccccc1NC(=O)Cc1nc(COC(=O)C(C)C)cs1 | 0.8 | -16 | / | / | /
Cc1ccc(C)c(N=Cc2ccc(-c3ccc([N+](=O)[O-])cc3)o2)c1 | 1.8 | 3 | / | 2% | -12
Cc1ccc(CN(C(=O)c2ccccc2C)C2CCS(=O)(=O)C2)o1 (stereo unspecified) | 1.2 | 3 | / | / | /
COCCNS(=O)(=O)c1ccc(-c2ccc(Cl)cc2)cc1 | 2.5 | -3 | / | 3% | 0
CC(C)(C)c1ccc(S(=O)(=O)N2CCCC2C(=O)N2CCOCC2)cc1 (stereo unspecified) | -1.4 | 5 | / | 4% | 2
O=C(CN(Cc1ccc2c(c1)OCO2)C(=O)CNS(=O)(=O)c1ccccc1)NCc1ccco1 | 0.5 | 1 | -201 | -2% | -5
CC1CCN(C(=O)COC(=O)c2ccc3c(c2)OCO3)CC1 | -0.8 | 6 | / | 4% | 0
CC(C(=O)c1ccccc1)[n+]1cccc(Br)c1 (stereo unspecified) | -0.8 | ? | / | / | /
CSc1ncccc1C(=O)N1CCCC(CCC(=O)NCc2ccccc2F)C1 (stereo unspecified) | -0.3 | 3 | / | 7% | 0
CCCOc1ccc(C(=O)NCCCn2ccnc2)cc1 | -0.6 | -14 | -46 | -3% | 3
Cc1cccc(OCC(=O)Nc2ccc3c(c2)OCCO3)c1 | / | -1 | -4 | 3% | 4
SMILES | RecA splice inh | Mtb bLac sens | YopH inh | Mtb H37Rv | Arbovirus anti | others
COc1cccc(/C=N/NC(=O)CNC(=O)/C=C\c2ccccc2)c1O | 0.7 | -2 | / | / | /
CC(=O)Nc1ccc(N=Cc2ccc(OCc3ccccc3)cc2)cc1 | 6.6 | 1 | -11 | 23% | -3
CCC(C)(C)NC(=O)C(c1cccnc1)N(C(=O)c1csnn1)c1ccc(C)cc1 (stereo unspecified) | -0.2 | -6 | / | 2% | 8
COc1ccc(NCCC(O)c2ccc(Cl)cc2)cc1 (stereo unspecified) | 4.3 | 7 | / | / | /
c1ccc(CCc2ccccc2-c2nc(-c3ccccn3)no2)cc1 | 2.0 | 35 | -25 | -3% | -5
O=C(COC(=O)c1ccc(Cl)nc1)Nc1ncc(Cl)cc1Cl | 3.2 | -6 | / | -9% | 7
CCCCCOc1ccc(CN2CCOCC2)cc1Cl | / | ? | -13 | 0% | -4
C[C@H]1O[C@H](O[C@H]2[C@H](O)[C@@H](O)[C@@H](O[C@H]3[C@H](O)[C@@H](O)C(O)O[C@@H]3CO)O[C@@H]2CO)[C@H](O)[C@@H](O)[C@@H]1N[C@H]1C=C(CO)[C@@H](O)[C@H](O)[C@H]1O (stereo partly specified) | -2.6 | 0 | / | -9%&1% | -6
O=C(N/N=C/c1coc2ccc(Cl)cc2c1=O)c1ccncc1 | 5.8 | 100 | / | / | /
CCOc1ccc(OCCN2C(=O)c3ccccc3C2=O)cc1 | 1.3 | -4 | / | / | /
CCOc1ccccc1CN1CCCC(CNC(=O)Cc2ccc(OC)cc2)C1 (stereo unspecified) | 2.3 | -11 | / | / | /
CC(c1ccco1)N(C(=O)c1ccc(Cl)c([N+](=O)[O-])c1)c1ccccn1 (stereo unspecified) | 2.4 | -2 | / | / | /
COC(=O)c1[nH]c2cccc(OC)c2c1NC(=O)CN1CCOCC1 | -0.2 | -3 | -52 | -7% | 4
COc1cc(/C=N/NC(=O)C(=O)NCC2CCCO2)ccc1O (stereo unspecified) | -0.3 | -5 | -19 | 3% | -5
CN(c1ccccc1)c1ccc(/C=N/N2CCOCC2)cc1 | -6.2 | 3 | -12 | 1% | 6
CCOc1ccccc1N(C)S(=O)(=O)c1ccc2c(c1)CCN2C(=O)CCC(=O)O | 0.8 | 0 | / | / | /
COc1ccc(S(=O)(=O)N2CCC(C(=O)N3CCCC3)CC2)cc1 | -0.9 | -9 | -35 | 9% | 3
COc1ccc(NC(=O)/C(Cl)=C(/Cl)S(=O)(=O)Cc2ccccc2)cn1 | 76* | / | 11 | 4% | -33
COc1ccc(/C=C2\C(=O)c3ccccc3OC2c2ccccc2)cc1 (stereo unspecified) | 22 | 2 | / | 0% | /
Cc1cccc(C(=O)N/C(=C\c2ccc(C)o2)C(=O)O)c1 | -2.7 | -6 | / | -5% | /
O=C(CCNC(=O)c1ccc(Cl)cc1)Nc1ccc(S(=O)(=O)N2CCCCC2)cc1 | 0.6 | -10 | / | / | /
Cc1ccnc2nc(C(=O)Nc3nnc(CC(C)C)s3)nn12 | -8.1 | -1 | -18 | -3% | 0
COC(=O)[C@@H]1C[C@]2(Br)c3ccccc3N(S(=O)(=O)c3ccccc3)[C@@H]2N1C(=O)OC | 0.2 | -22 | / | -1% | /
CCc1cc(C(=O)N2CCCc3ccccc32)sc1C | 6.5 | -1 | / | / | /
O=C(CSc1ccc2c(c1)OCCO2)NC(=O)Cc1ccccc1 | -0.4 | 4 | -30 | 8% | -4
Cc1ccc(C(=O)NCCSC2CCCCC2)cc1S(=O)(=O)Nc1ccccc1 | 6.0 | 3 | -20 | -1% | -18
COC(=O)c1ccc2c(=O)n(CCCCCC(=O)NCc3ccc4c(c3)OCO4)c(=O)[nH]c2c1 | 2.6 | 4 | 4 | -10% | 1
COC(CN1C(=O)C(=O)/C(=C(/O)c2ccccc2)C1c1ccccn1)OC (stereo unspecified) | 0.9 | 4 | / | -2% | -1
CCN(Cc1ccccc1)C(=O)c1oc2ccc(S(=O)(=O)N3CCOCC3)cc2c1C | 3.8 | 4 | / | / | /

Compounds listed so far containing four or more nitrogen atoms:
SMILES | RecA splice inh | Mtb bLac sens | YopH inh | Mtb H37Rv | Arbovirus anti | others
O=[N+]([O-])c1ccc2c(c1)C(O)n1nc(-c3ccccc3)nc1S2 (stereo unspecified) | -2.7 | -1 | / | -10% | /
Cc1ccc(-n2nc3c(N4CCC(C(=O)NCCc5cccs5)CC4)nnc(C)c3c2C)cc1 | -2.4 | -6 | / | / | /
COC(=O)c1c(NC(=O)CSc2n[nH]c(N)n2)sc(C)c1C | -2.0 | -14 | -28 | 1% | -3
O=C1NC(=O)C(CCc2ccncc2)(CCc2ccncc2)C(=O)N1C1CCCCC1 | -0.7 | 3 | / | -5% | 12
CCN1C(=O)C(CC(=O)Nc2c(C)cccc2C)SC1=Nc1ccc(S(N)(=O)=O)cc1 (stereo unspecified) | 0.1 | 7 | -24 | -4% | 1
CCN1CCN(C(c2cccs2)C(C)NC(=S)NC2CCCCC2)CC1 (stereo unspecified) | -1.0 | -5 | / | -1% | /
CN(C)S(=O)(=O)c1ccc(NC(=O)Cn2c(-c3ccccc3)noc2=O)cc1 | -2.1 | -1 | -1 | -8% | -6
Cc1cccc(-n2ncc3c(NCCCN4CCCC4=O)ncnc32)c1 | -2.1 | 3 | -57 | -2% | -3
CC1CCCN(C(=O)CN2CCC(c3nc4ccc(Cl)cc4[nH]3)CC2)C1 (stereo unspecified) | 1.6 | -15 | / | -5% | /
CCC(C)(C)NC(=O)C(c1cccnc1)N(C(=O)c1csnn1)c1ccc(C)cc1 (stereo unspecified) | -0.2 | -6 | / | 2% | 8
Cc1ccnc2nc(C(=O)Nc3nnc(CC(C)C)s3)nn12 | -8.1 | -1 | -18 | -3% | 0

These rows are one share of the data. The share of hits here may be higher or lower than overall.
